# Screening data deposited in PubChem BioAssay by Sanford-Burnham Center for Chemical Genomics.
# tim23-1 inh: inhibits growth of tim23-1 mutant yeast; S. cerevisiae tim23-1 growth, BacTiter-Glo luminescence, 24 h; inhibition, % at 20 µM; 1.3% of 330,000 active; AID 463212;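 active = growth inhibition of the mutant yeast at or above 50%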;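 also: temperature-sensitive mutant grown at 25 °C; plate controls were DMSO-treated mutant yeast for no effect and medium wells lacking yeast for full effect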
# CHOP UPR activ: apoptotic UPR (CHOP) activation; CHO-CHOP luciferase reporter, luminescence; percent of tunicamycin response over DMSO baseline; activation, % at 10 µM; 0.34% of 330,000 active; AID 449763;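 active = at 10 µM dose, activation of 40% or more, normalized to positive control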;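 also: 100% = tunicamycin at 10 µg/mL and 0% = DMSO alone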
#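 Assay system: CHO cells with stable CHOP pathway luciferase reporter; Buffer or medium: F12 plus 10% serum; Times: 16-18 h cell attachment, then 6 h compound exposure, 37 °C; Signal: luciferase luminescence; Read-out basis: percent activation relative to tunicamycin control; Control set: tunicamycin high control, DMSO low control.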
# tim10-1 inh: growth inhibitors of tim10-1 mutant yeast | 2.2% of 330,000 active | AID 463190 | S. cerevisiae tim10-1 ts strain growth, BacTiter-Glo, 24 h | inhibition, % at 20 µM;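 active = inhibition of at least 40%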;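 also: mutant grown at 25 °C; 0% = DMSO wells with yeast and 100% = wells holding no yeast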
# TIM10 inh: growth inhibitors of TIM10 yeast strain; AID 463195; S. cerevisiae TIM10 strain growth, BacTiter-Glo luminescence, 24 h; 1.4% of 330,000 active; inhibition, % at 10 µM;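 active = inhibition of 40% or more at the single tested concentration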;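 also: wild-type TIM10 isogenic control strain grown at permissive 25 °C; 0% = DMSO yeast wells and 100% = minimal medium wells without yeast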
# XBP1 UPR activ: activators of adaptive arm of unfolded protein response (XBP1). activation, % at 20 µM. CHO-XBP1 luciferase reporter, IRE1-XBP1 UPR activation, luminescence; percent of tunicamycin response, DMSO as zero. 0.33% of 330,000 active;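 active = versus positive control, 20 µM dose yields 30% or more activation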;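 also: 100% = tunicamycin at 10 µg/mL and 0% = DMSO only wells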
#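 assay system = CHO-XBP1 luciferase reporter cells | amount = 1000 cells/well | buffer or medium = F12 plus 10% FBS | compound dosing = single point, 20 µM final compound, 1% DMSO | incubation = 16-18 h cell attachment at 37 °C, then 6 h compound exposure | detection = Steady-Glo luminescence read | controls = tunicamycin 10 µg/mL and vehicle-only wells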
# Starred values were filed as active, the others as inactive; · = not tested or not shown; & = joins results of further samples.
SMILES	XBP1 UPR activ	CHOP UPR activ	tim10-1 inh	tim23-1 inh	TIM10 inh
CCCc1nn(C)c2c(=O)[nH]c(-c3cc(S(=O)(=O)N4CCN(C)CC4)ccc3OCC)nc12	-10	-0.2	10	0	12
CC(C)CC(=O)N[C@H](C(=O)N[C@H](C(=O)N[C@@H](CC(C)C)[C@@H](O)CC(=O)N[C@@H](C)C(=O)N[C@@H](CC(C)C)[C@@H](O)CC(=O)O)C(C)C)C(C)C	-1	0.1	6	-1	9
N#Cc1ccccc1N/C=C/C(=O)c1ccc(Cl)cc1	-1	0.4	-1	-1	-10
CC(C(O)c1ccc(O)cc1)N1CCC(Cc2ccccc2)CC1 (stereo not given)	-2&-7	-1.7&0.2	-11&-14	-23&0	-8&-5
Cc1cc(CC(=O)O)n(C)c1C(=O)c1ccc(Cl)cc1	-1	2.7	-9	1	-3
c1cc(CCCc2ccncc2)ccn1	0	1.3	-8	-9	-7
O=C(O)/C=C/c1cnc[nH]1	-5	3.4	-9	7	9
Fc1ccc2cnc(-c3ccccc3)cc2c1	6	4.9	-24	31	2
O=C(Nc1ccc(Cc2ccncc2)cc1)c1ccc(Cl)c([N+](=O)[O-])c1	-3	-10	-47	-383	-111
CCOc1ccc2c(c1)C(C)=CC(C)(C)N2	-3	3.0	-10	-6	6

# Single values from the results shown.
# `O=C(O)/C=C/c1cnc[nH]1` – tim23-1 inh: 7
# `CCOc1ccc2c(c1)C(C)=CC(C)(C)N2` – tim10-1 inh: -10

# (continued)
SMILES	XBP1 UPR activ	CHOP UPR activ	tim10-1 inh	tim23-1 inh	TIM10 inh
CC(=O)[C@H]1CC[C@H]2[C@@H]3CCC4=CC(=O)CC[C@]4(C)[C@H]3CC[C@]12C	-6	2.5	16	33	-46
O=Cc1ccc(C(=O)O)cc1	-1	-0.9	-12	-5	5
Clc1ccc(-c2cn3cc(Br)ccc3n2)cc1Cl	-3	-2.3	26	4	-8
CC1(c2ccccc2)CC(C)(C)N(C(=O)CSc2nnc(N)s2)c2ccccc21 (stereo not given)	1	-0.3	30	30	29
Fc1ccc(-c2cn3ccccc3n2)cc1	-6	0.4	-6	-6	-5
CCCCN(CCCC)c1ccc(C(=O)c2ccccc2C(=O)O)c(O)c1	0	-1.6	21	10	18
NCCCC(N)(C(=O)O)C(F)F (stereo not given)	-5	-0.9	-13	-8	6
O=C(COc1ccc(Cl)cc1Cl)Nc1ccccc1F	0	2.6	8	4	-15
CC(=O)OCC(=O)[C@@]1(O)CC[C@H]2[C@@H]3CCC4=CC(=O)C=C[C@]4(C)[C@H]3[C@@H](O)C[C@@]21C	-7	-1.3	16	1	1
C[n+]1ccccc1/C=N/O	-4	-1.4	-9	-7	0

# Other compounds follow:
SMILES	XBP1 UPR activ	CHOP UPR activ	tim10-1 inh	tim23-1 inh	TIM10 inh
Clc1ccc(Cn2c(CN3CCCC3)nc3ccccc32)cc1	-6	-0.1	17	17	6
Cc1ccc(C(=O)OC(C(=O)O)C(OC(=O)c2ccc(C)cc2)C(=O)O)cc1 (stereo not given)	-1	-0.9	-14	3	0
COC(=O)[C@H]1[C@H]2C[C@@H]3c4[nH]c5cc(OC)ccc5c4CCN3C[C@H]2C[C@@H](OC(=O)c2cc(OC)c(OC)c(OC)c2)[C@@H]1OC	-9	-0.3	9	6	7
CCn1cc(C(=O)O)c(=O)c2cc(F)c(N3CCN(C)CC3)cc21	3	-0.9	15	13	2
CC(C)[N+](C)(CCOC(=O)C1c2ccccc2Oc2ccccc21)C(C)C	-6	-1.4	-22	-9	6
c1ccc(OCc2ccc(CCCN3CCOCC3)cc2)cc1	-1	3.7	-47	-27	1
O=C(O)c1ccc(N/N=C/c2ccc(C(F)(F)F)cc2)cc1	-7	-8.0	-2	15	-2
C#CCN(C)CCCOc1ccc(Cl)cc1Cl	-6	5.0	-2	3	4
CCCCCCCC(=O)O	-2	-1.1	14	9	12
CC[N+](CC)(CC)CCOc1ccc(/C=C/c2ccccc2)cc1	-2	1.3	-45	17	-41

# Other records
SMILES	XBP1 UPR activ	CHOP UPR activ	tim10-1 inh	tim23-1 inh	TIM10 inh
CC(C)NC[C@@H](O)c1ccc(O)c(O)c1	-5	-0.7	-9	0	-3
CNCC[C@@H](Oc1ccccc1C)c1ccccc1	-2	-0.9	25	6	8
O=C(NNC(=O)c1cc(Cl)ccc1O)c1cccs1	6	0.2	4	11	11
O=C(CO)C(O)C(O)C(O)CO (stereo not given)	-9	1.1	-36	10	4
COCCCn1c(C)nnc1SCC(=O)NNC(=O)COc1ccc(Cl)cc1	-2	0.3	1	0	-15
O=C(Nc1ccccc1)OCC(CN1CCCCC1)OC(=O)Nc1ccccc1 (stereo not given)	-5	-1.6	16	7	6
O=C(Nc1ccccn1)Nc1ccccc1[N+](=O)[O-]	0	4.4	26	9	15
Cc1cc(C)n2nc(-c3ccccc3)cc2n1	-2	2.3	5	7	-13
C#C[C@]1(O)CCC2C3CCC4=CC(=O)CC[C@@H]4C3CC[C@@]21C (stereo not given in full)	-5	1.9	22	25	-18
CN(C)C(=O)C(CCN1CCC(O)(c2ccc(Cl)cc2)CC1)(c1ccccc1)c1ccccc1	-8	-0.2	-17	-11	6

# (listing goes on)
SMILES	XBP1 UPR activ	CHOP UPR activ	tim10-1 inh	tim23-1 inh	TIM10 inh
CC(=O)CC(c1ccccc1)c1c(O)c2ccccc2oc1=O (stereo not given)	-4&-8	-0.7&2.6	2&-3	-3&5	5&-3
O=C1C(CCS(=O)c2ccccc2)C(=O)N(c2ccccc2)N1c1ccccc1 (stereo not given)	-8	2.1	-2	4	0
CC(C)n1c(/C=C/[C@@H](O)C[C@@H](O)CC(=O)O)c(-c2ccc(F)cc2)c2ccccc21	-10	1.6	21	24	4
CSc1ccccc1-c1nc(-c2ccncc2)no1	-1	4.0	1	-30	-25
CC(C)NCC(O)COc1ccc(CC(N)=O)cc1 (stereo not given)	-6	-1.0	-5	·	2
NCCCN1CCOCC1	0	3.7	11	-2	2
Cc1c(N)c(=O)n(-c2ccccc2)n1C	-5	-2.0	4	8	6
CCN[C@H]1C[C@H](C)S(=O)(=O)c2sc(S(N)(=O)=O)cc21	-5	0.6	5	3	4
COc1[nH]c2ccc(F)cc2c1C(=O)OCC1CCN(CCNS(C)(=O)=O)CC1	-5	1.1	8	7	-3
Nc1ccn([C@H]2CS[C@@H](CO)O2)c(=O)n1	-1	1.9	2	-3	3

# Going on with the list:
SMILES	XBP1 UPR activ	CHOP UPR activ	tim10-1 inh	tim23-1 inh	TIM10 inh
Cc1ccc(Cl)c(Nc2ccccc2C(=O)O)c1Cl	-6&-1	-1.4&-1.0	19&13	33&27	12&3
CC(C)(C)NCC(O)COc1cccc2c1CCC(=O)N2 (stereo not given)	-6	-2.0	-18	5	1
CC(=O)[C@H]1CCC2C3CC=C4C[C@@H](O)CC[C@]4(C)C3CC[C@@]21C (stereo not given in full)	-1	0.6	11	17	7
CCCCCCCCCCCCCC(=O)O	-2	1.3	19	11	9
CC(C)NC[C@H](O)COc1ccc(CC(N)=O)cc1	-5	0.4	8	·	2
COc1ccc(C(=O)N2CCN(CC(=O)N3CCOCC3)CC2)cc1	-1	-2.2	-4	-3	4
CCN1CCN(C(=O)N[C@@H](C(=O)N[C@@H]2C(=O)N3C(C(=O)O)=C(CSc4nnnn4C)CS[C@H]23)c2ccc(O)cc2)C(=O)C1=O	-3	-1.0	4	-11	0
CC1=C(C(=O)NC2CCCc3c2cnn3-c2cccc(C)c2C)OCCO1 (stereo not given)	-1	1.5	15	13	23
C=C[C@@]1(C)CC(=O)[C@]2(O)[C@@]3(C)[C@@H](O)CCC(C)(C)[C@@H]3[C@H](O)[C@H](OC(C)=O)[C@@]2(C)O1	23	-1.5	-8	-10	6
CCOC(=O)c1ccc(NC(=O)c2ccc(C)c(S(=O)(=O)N3CCOCC3)c2)cc1	-4	8.0	19	27	0

# The list continues:
SMILES	XBP1 UPR activ	CHOP UPR activ	tim10-1 inh	tim23-1 inh	TIM10 inh
Cc1cn[nH]c1	-6	1.2	5	3	8
COc1cc2nc(N3CCN(C(=O)c4ccco4)CC3)nc(N)c2cc1OC	-10&-7	4.7&-1.0	-2&-10	-14&-19	0&11
Oc1ccccc1O	2	1.2	9	13	10
Cc1cn([C@H]2C=C[C@@H](CO)O2)c(=O)[nH]c1=O	-10&-1	2.7&1.8	-27&-17	11&-7	6&6
CNNCc1ccc(C(=O)NC(C)C)cc1	-5	-1.2	25	14	5
CCc1ccc2oc(-c3ccc(OC)cc3)cc(=Nc3cccc(C(=O)O)c3)c2c1	-4	2.2	16	21	15
Nc1cccc(S(=O)(=O)c2cccc(N)c2)c1	-1	-1.0	11	14	-7
NC(N)=N/N=C/c1c(Cl)cccc1Cl	-5	0.2	-6	-13	-3
Cc1cccc([N+](=O)[O-])c1C(=O)O	-2	1.0	-15	-11	5
CC(=O)c1nccs1	-4	-1.0	-13	-8	1

# 6 neighbouring entries already listed, for reference:
SMILES	XBP1 UPR activ	CHOP UPR activ	tim10-1 inh	tim23-1 inh	TIM10 inh
CCCc1nn(C)c2c(=O)[nH]c(-c3cc(S(=O)(=O)N4CCN(C)CC4)ccc3OCC)nc12	-10	-0.2	10	0	12
CC(C)CC(=O)N[C@H](C(=O)N[C@H](C(=O)N[C@@H](CC(C)C)[C@@H](O)CC(=O)N[C@@H](C)C(=O)N[C@@H](CC(C)C)[C@@H](O)CC(=O)O)C(C)C)C(C)C	-1	0.1	6	-1	9
N#Cc1ccccc1N/C=C/C(=O)c1ccc(Cl)cc1	-1	0.4	-1	-1	-10
CC(C(O)c1ccc(O)cc1)N1CCC(Cc2ccccc2)CC1 (stereo not given)	-2&-7	-1.7&0.2	-11&-14	-23&0	-8&-5
Cc1cc(CC(=O)O)n(C)c1C(=O)c1ccc(Cl)cc1	-1	2.7	-9	1	-3
c1cc(CCCc2ccncc2)ccn1	0	1.3	-8	-9	-7

# The list goes on:
SMILES	XBP1 UPR activ	CHOP UPR activ	tim10-1 inh	tim23-1 inh	TIM10 inh
COc1cc2nc(N(C)CCCNC(=O)C3CCCO3)nc(N)c2cc1OC (stereo not given)	-2	1.2	7	16	2
C#C[C@]1(O)CC[C@H]2[C@@H]3CCC4=C(CCC(=O)C4)[C@H]3CC[C@@]21C	-3	-0.9	40	38	13
O=C(O)c1ccc(N/N=C/c2ccc(F)c(F)c2)cc1	-4	-2.3	10	8	9
CC1(C)CC(N2CCCCC2)=CC(=[N+]2CCCCC2)C1	0	-0.9	10	5	9
C[N+]1(C)CCCC(OC(=O)C(O)(c2ccccc2)c2ccccc2)C1 (stereo not given)	-5	0.5	-9	-3	5
C[N+]12CCC(CC1)C(OC(=O)C(O)(c1ccccc1)c1ccccc1)C2 (stereo not given)	-8	-1.3	-13	-3	5
C[C@]12C=CC(=O)C=C1CC[C@H]1[C@@H]3C[C@@H](O)[C@](O)(C(=O)CO)[C@@]3(C)C[C@H](O)[C@@]12F	-8	2.3	-6	-11	2
O=C(NCC1CCCCN1)c1cc(OCC(F)(F)F)ccc1OCC(F)(F)F (stereo not given)	-8	-1.1	12	-4	12
CCCc1ncc(C[n+]2ccccc2C)c(N)n1	-4	-1.2	2	-5	12
Cc1ccc(C)c(-c2ccc(=O)n(Cc3cccc(Br)c3)n2)c1	8	-0.1	14	1	-28

# Next results follow:
SMILES	XBP1 UPR activ	CHOP UPR activ	tim10-1 inh	tim23-1 inh	TIM10 inh
CC(=O)[C@H]1CC[C@H]2[C@@H]3CC=C4C[C@@H](O)CC[C@]4(C)[C@H]3CC[C@]12C	-1	-0.9	18	15	4
O=C(O)CCC(=O)Nc1ccc(S(=O)(=O)Nc2nccs2)cc1	-5	-0.2	-6	4	2
Nc1ccc(S(N)(=O)=O)cc1	-5	0.0	-10	·	5
O=C1NC(=O)C(c2ccccc2)(c2ccccc2)N1	-8&-2	-1.9&-1.6	3&5	8&-11	4&9
CC(=O)N[C@@H](CS)C(=O)O	4	0.4	14	5	-2
Nc1ncnc2c1ncn2C1OC(COP(=O)(O)O)C(O)C1O (stereo not given)	-5	-2.3	85*	81*	73*
Nc1ccccc1-c1nc2ccccc2c(=O)o1	-1	5.6	-37	38	-16
O=[N+]([O-])c1cccc(-c2nc(-c3ccccn3)no2)c1	-3	2.0	9	6	25

# Some of the compounds tested; the hit share may differ from the screen's.
